Screening results as filed in PubChem BioAssay.
VCAM-1 inhibition – suppression of endothelial VCAM-1 upregulation – cell-based, plate reader, pooled HUVEC, TNFa stimulus (AID 454); HUVEC TNFa-induced VCAM-1 surface immunofluorescence, plate reader; numbers were filed only for top-ranked candidate wells; inhibition, % at 5 µM; hit rate 0.2% among 10,000;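 active = compound among top-ranked inhibitors of TNF-induced VCAM-1 adhesion protein staining, with the hit upheld by image or statistical review; inactive = the rest, including hits rejected on review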;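 note: 0% = TNFa with vehicle and 100% = cells without TNFa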
VCAM-1 down imaging – suppression of endothelial VCAM-1 upregulation – imaging, high-content imaging, pooled HUVEC, TNFa stimulus (AID 456); HUVEC TNFa-induced VCAM-1 surface expression, immunofluorescence imaging; numbers were filed only for top-ranked candidate wells; one-dose inhibition, % at 5 µM; IC50 in µM for titrated hits; hit rate 0.2% among 10,000;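 active = top tenth filtered wells with inhibition above zero that passed visual or statistical confirmation; inactive = the rest, including hits rejected on review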;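 note: 0% = stimulated vehicle wells and 100% = unstimulated cells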
VCAM-1 augmentation – enhancers of VCAM-1 display on endothelial cells, imaging, high-content imaging, pooled HUVEC, TNFa stimulus (AID 457); calls only; hit rate 0.2% among 10,000; Pooled HUVEC, TNFa-induced VCAM-1 immunofluorescence imaging; hits of this screen are not shown here;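 active = a top-ranked rise in VCAM-1 staining upheld on image or statistical review; inactive = the rest, including candidates rejected on review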;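 note: compounds tested at 5 µM in the well; cells exposed to compound for 24 hours before fixing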
FPRL1 ligand – human FPRL1 ligand, with FPR counter-screen; P25090; FPRL1-expressing cells, fluorescent ligand binding inhibition, flow cytometry; inhibition, %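 (tested at 6.7 µM)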; hit rate 0.3% among 24,000;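 note: 0% = buffer alone and 100% = receptor blocker peptide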
Target sequence (P25090 whole entry, looked up): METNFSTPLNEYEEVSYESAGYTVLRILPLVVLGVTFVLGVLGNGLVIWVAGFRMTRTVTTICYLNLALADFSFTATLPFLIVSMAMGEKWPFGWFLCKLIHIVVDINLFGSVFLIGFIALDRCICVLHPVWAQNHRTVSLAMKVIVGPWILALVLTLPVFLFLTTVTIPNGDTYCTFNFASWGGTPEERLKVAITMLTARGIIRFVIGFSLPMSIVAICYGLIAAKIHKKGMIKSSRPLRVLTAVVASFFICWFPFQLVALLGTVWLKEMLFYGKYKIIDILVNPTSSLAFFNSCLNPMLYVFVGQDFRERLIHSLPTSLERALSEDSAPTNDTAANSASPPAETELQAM
FPR binder – binds the human formylpeptide receptor FPR | inhibition, %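 (tested at 6.7 µM)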 | hit rate 0.74% among 24,000 | AID 440 | P21462 | FPR-expressing cells, fluorescent ligand binding, flow cytometry;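 note: 0% = buffer wells and 100% = receptor blocker peptide wells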
Target sequence (P21462 whole entry, looked up): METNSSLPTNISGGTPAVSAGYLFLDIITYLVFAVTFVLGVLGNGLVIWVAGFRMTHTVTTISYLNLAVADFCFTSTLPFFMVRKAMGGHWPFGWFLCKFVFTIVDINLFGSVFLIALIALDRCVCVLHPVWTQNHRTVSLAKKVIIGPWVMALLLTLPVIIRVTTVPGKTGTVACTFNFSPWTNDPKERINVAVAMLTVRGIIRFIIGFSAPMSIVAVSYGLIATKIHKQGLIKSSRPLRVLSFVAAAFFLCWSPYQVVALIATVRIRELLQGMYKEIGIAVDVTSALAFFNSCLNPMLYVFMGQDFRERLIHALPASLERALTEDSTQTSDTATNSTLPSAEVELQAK
Numbers without * were called inactive; i = inactive; nt = not tested or not shown.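 Rule for the calls, unless noted: active = mean above 30%; inconclusive = self-fluorescent; inactive = the rest.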 A portion of the library; count on the stated rates, not on these rows.

SMILES	VCAM-1 inhibition	VCAM-1 down imaging	VCAM-1 augmentation	FPRL1 ligand	FPR binder
CCOC(=O)N1CCC(NC(=O)CN2C(=O)CSc3nc(C)cc(C)c32)CC1	nt	nt	nt	0	-4
CC1CCN(C(=O)Cc2nn(C)c(=O)c3ccccc23)CC1	nt	nt	nt	5	-2
CC(Oc1ccc(Br)cc1)C(=O)N1CCc2ccccc21 (centres undefined)	i	i	i	21	19
CC(C)(C)OC(=O)N1CCNc2ccccc2C1	nt	nt	nt	2	3
Cc1ccc2c(c1)NC(=O)C(CC(=O)NCCCN1CCN(c3cc(Cl)ccc3C)CC1)O2 (centres undefined)	i	90%	i	-3	-5
Cc1ccc(C(=O)Nc2c(C(=O)NCc3ccco3)cnn2-c2ccccc2)cc1	nt	nt	nt	-15	3
COCCN1C(=O)c2ccccc2C(C(=O)NCc2ccco2)C1c1c[nH]c2ccccc12 (centres undefined)	nt	nt	nt	2	9
COc1cccc(C(=O)OCn2nnc3ccccc3c2=O)c1OC	i	i	i	4	7
CCOc1ccccc1NS(=O)(=O)c1c(C)noc1C	i	i	i	17	2
CCCCn1c(=S)[nH]c2ncccc2c1=O	nt	nt	nt	2	4
CC(C)CNC(=O)c1cc(-c2ccc(Br)cc2)on1	nt	nt	nt	-4	-7
COc1cc(NC(=O)Cc2ccc(Cl)cc2)ccc1NC(=O)c1ccco1	nt	nt	nt	-3	-2
CN1C(=O)C2(NCCc3c2[nH]c2ccccc32)c2ccccc21 (centres undefined)	i	i	i	0	0
Cc1ccc(O)c(C(CC(=O)N2CCCC2)c2ccccc2)c1 (centres undefined)	i	i	i	-4	-2
O=C(NCCc1ccccc1)c1noc2c1CCCCC2	nt	nt	nt	-1	1
COc1ccc(OC)c(S(=O)(=O)Nc2ccc(CC(=O)O)cc2)c1	nt	nt	nt	0	-5
COc1cccc(-c2nc(CS(=O)(=O)CC(=O)NCCCOC(C)C)c(C)o2)c1	nt	nt	nt	5	1
COC(=O)c1ccc(N2CCOCC2)c(NC(=O)Nc2cccc(OC)c2)c1	nt	nt	nt	1	2
Cc1cc2ncn(C3CC(=O)N(Cc4ccc(N5CCCC5=O)cc4)C3=O)c2cc1C (centres undefined)	nt	nt	nt	-1	-4
CCOC(=O)c1nnc2cc(-c3ccc(Br)cc3)nn2c1C	i	i	i	2	-2
CC1CCc2c(C(=O)NCC3CCCO3)csc2C1 (centres undefined)	nt	nt	nt	-1	5
Cc1nn(C(C)C(=O)O)c2ccccc12 (centres undefined)	nt	nt	nt	0	-4
COc1ccc(N2C(=O)C3CCCN3C2c2ccccc2)cc1Cl (centres undefined)	nt	nt	nt	-2	-9
O=C(CCN1C(=O)C2C3C=CC(C3)C2C1=O)NCC1CCCO1 (centres undefined)	nt	nt	nt	5	-9
CCOc1ccc(OCC)c(NS(=O)(=O)c2ccc3c(c2)n(C)c(=O)c(=O)n3C)c1	i	i	i	5	-2

The list goes on, starting with the last six of the part before.
SMILES	VCAM-1 inhibition	VCAM-1 down imaging	VCAM-1 augmentation	FPRL1 ligand	FPR binder
CCOC(=O)c1nnc2cc(-c3ccc(Br)cc3)nn2c1C	i	i	i	2	-2
CC1CCc2c(C(=O)NCC3CCCO3)csc2C1 (centres undefined)	nt	nt	nt	-1	5
Cc1nn(C(C)C(=O)O)c2ccccc12 (centres undefined)	nt	nt	nt	0	-4
COc1ccc(N2C(=O)C3CCCN3C2c2ccccc2)cc1Cl (centres undefined)	nt	nt	nt	-2	-9
O=C(CCN1C(=O)C2C3C=CC(C3)C2C1=O)NCC1CCCO1 (centres undefined)	nt	nt	nt	5	-9
CCOc1ccc(OCC)c(NS(=O)(=O)c2ccc3c(c2)n(C)c(=O)c(=O)n3C)c1	i	i	i	5	-2
CCOc1c2c(nc3ccc(Cl)cc13)CCC2	nt	nt	nt	-1	-2
Cc1ccc2c(c1)N(CC(=O)NC1CCCc3ccccc31)C(=O)CO2 (centres undefined)	nt	nt	nt	-1	3
COC(=O)C1=C(C(C)=O)C(c2ccc(C(=O)OC)cc2)n2nnnc2N1 (centres undefined)	nt	nt	nt	2	17
CC(=O)Nc1ccn(-c2ccccc2)n1	i	i	i	11	2
O=c1cc(N2CCN(c3ccccc3)CC2)[nH]c(=O)n1-c1ccccc1Cl	nt	nt	nt	-2	-2
C1=C(c2cccc3ccccc23)N2CCN=C2S1	nt	nt	nt	-1	-3
CCN(c1ccc2c(c1)OCO2)S(=O)(=O)c1cc(Br)cc2c1N(C(=O)C1CC1)CC2	i	i	i	-2	3
CCOC(=O)C1CCN(c2c(N3CCN(Cc4ccccc4)CC3)c(=O)c2=O)CC1	nt	nt	nt	11	1
Clc1cccc2sc(N3CCOCC3)nc12	nt	nt	nt	-2	-1
CCOCCCN(C(=O)Nc1ccc(CC)cc1)C1CCN(C(C)=O)CC1	nt	nt	nt	0	4
COc1ccc(S(=O)(=O)Nc2cc(C)on2)cc1OC	i	i	i	4	-8
CCCOc1ccc2oc(=O)c3c(c2c1)CCCN3C(=O)CN1CCc2ccccc2C1	nt	nt	nt	5	-3
CCOC(=O)c1ccc(NS(=O)(=O)c2ccc3c(c2)CCCN3C(C)=O)cc1	i	i	i	0	2
COC(=O)C1CCC(C)(C(=O)Nc2ccccc2)C1(C)C (centres undefined)	nt	nt	nt	1	8
COc1cccc(OC)c1C(=O)n1nc(C)cc1C	i	i	i	-2	2
CCCOc1ccc(N2C(=O)CC(SCCN)C2=O)cc1 (centres undefined)	i	i	i	-3	-5
Cc1nn(C)cc1CNC(=O)CCC(=O)O	nt	nt	nt	5	5
COC(=O)c1nc2n(n1)C(c1cc(OC)ccc1OC)C(C(=O)OC1CCCCC1)=C(C)N2 (centres undefined)	nt	nt	nt	6	-2
O=C(NCC(c1cccnc1)N1CCN(c2ccc(F)cc2)CC1)c1ccc2c(c1)OCO2 (centres undefined)	nt	nt	nt	4	-8
COc1cccc(-n2c(SCC(N)=O)nc3c([nH]c4ccccc43)c2=O)c1	nt	nt	nt	4	0
Cn1c(=O)oc2cc(S(=O)(=O)NCCN3CCc4ccccc4C3)ccc21	nt	nt	nt	-2	-11
O=C(Cn1cnc2c(oc3ccccc32)c1=O)NCCc1ccccc1	nt	nt	nt	9	-2
Cc1cccc(Nc2ncc3c(n2)CC(c2ccco2)CC3=O)c1 (centres undefined)	i	i	i	-3	1
COc1ccccc1-n1cc(C(=O)NCC(=O)N2CCN(c3ccccc3)CC2)c2ccccc2c1=O	nt	nt	nt	13	-2
COc1cccc(/C(O)=C2\C(=O)C(=O)N(c3ccccn3)C2c2cccc(OC)c2OC)c1 (centres undefined)	nt	nt	nt	1	-10

Single records, from the list above.
Listed for COc1ccccc1-n1cc(C(=O)NCC(=O)N2CCN(c3ccccc3)CC2)c2ccccc2c1=O → VCAM-1 inhibition = nt; VCAM-1 down imaging = nt; VCAM-1 augmentation = nt; FPRL1 ligand = 13; FPR binder = -2
Listed for COc1cccc(-n2c(SCC(N)=O)nc3c([nH]c4ccccc43)c2=O)c1 → VCAM-1 inhibition = nt; VCAM-1 down imaging = nt; VCAM-1 augmentation = nt; FPRL1 ligand = 4; FPR binder = 0

Continuation:
SMILES	VCAM-1 inhibition	VCAM-1 down imaging	VCAM-1 augmentation	FPRL1 ligand	FPR binder
COc1ccccc1CNC(=O)C1CCN(S(=O)(=O)N2CCCCC2)CC1	i	i	i	11	9
Cc1ccc2c(c1)c1c(n2CC(O)Cn2c(C)nc3ccccc32)C(=O)CCC1 (centres undefined)	nt	nt	nt	13	14
CCOC(=O)c1ccc(CNC(=O)Cn2nnc(-c3ccc(C)cc3)n2)o1	nt	nt	nt	10	-4
Cc1sc(NC(=O)c2ccco2)c(C(c2cccnc2)N2CCN(c3ccc(F)cc3)CC2)c1C (centres undefined)	nt	nt	nt	-1	-2
O=C(Nc1ccc(OC(=O)c2ccco2)cc1)c1ccco1	i	i	i	5	4
CCOc1ccc(N2C(N)=NC(N)=NC2(C)C)cc1	i	i	i	-1	8
COCCNC(=O)CCSCc1ccccc1F	nt	nt	nt	1	4
Cn1cccc1Cc1nnc(SCC(=O)NCc2ccco2)n1-c1ccc(F)cc1	nt	nt	nt	7	4
COc1ccc(S(=O)(=O)N2CCN(c3c(C)cccc3C)CC2)cc1OC	nt	nt	nt	-1	0
CC1=C(C(=O)N2CCN(C(=O)c3ccco3)CC2)C2(CCC(C)CC2)OC1=O (centres undefined)	nt	nt	nt	0	-6
CC1CCN(c2nc(-c3ccccc3)cc(C(F)(F)F)n2)CC1	nt	nt	nt	-2	-15
Cc1c(CCC#N)c(N2CCN(C3CCCCC3)CC2)n2c(nc3ccccc32)c1C#N	i	i	i	-14	-19
Clc1ccc(Nc2ncnc3c2cnn3-c2ccccc2)cc1	i	i	i	-6	-4
CCC(C)NC(=O)CS(=O)(=O)Cc1nc(-c2cccc(OC)c2)oc1C (centres undefined)	i	i	i	11	6
CCN(CC)CCNC(=O)CCCNC(=O)Cn1cnc2sc(C)c(C)c2c1=O	nt	nt	nt	-1	0
CCC(C)NC(=O)Cn1c(=O)n(-c2ccccc2)c(=O)c2ccc(C(=O)NCc3ccco3)cc21 (centres undefined)	nt	nt	nt	2	-2
O=C(CCCn1c(=S)[nH]c2cc3c(cc2c1=O)OCO3)N1CCN(c2ccccc2)CC1	nt	nt	nt	-1	4
O=C1CC(Cc2ccccc2)C(=O)N1CCCn1ccnc1 (centres undefined)	i	i	i	-5	-2
COC(=O)c1ccccc1NC(=O)CC(NCc1ccccc1)C(=O)O (centres undefined)	i	i	i	1	4
O=C(NCc1ccco1)C1CCN(C(=O)c2cc3sccc3n2Cc2ccc(F)cc2)CC1	i	i	i	6	7
O=C(Oc1nsnc1N1CCOCC1)N(c1ccccc1)c1ccccc1	nt	nt	nt	5	-3
OC(CN1CCOCC1)Cn1c(-c2cccc(Cl)c2)nc2ccccc21 (centres undefined)	i	i	i	-3	3
CCOC(=O)C1CCN(CC(=O)c2c(C)[nH]c3ccccc23)CC1	i	i	i	0	-7
O=C(COC(=O)C12CC3CC(CC(C3)C1)C2)NCc1ccco1	i	i	i	0	4
CN1CCC(N(C)C(=O)c2ccccc2Nc2ccc(SC(F)F)cc2)CC1	nt	nt	nt	-2	-17
Other structures follow.
SMILES	VCAM-1 inhibition	VCAM-1 down imaging	VCAM-1 augmentation	FPRL1 ligand	FPR binder
COc1ccccc1Oc1c(C)oc2c(CN3CCN(C)CC3)c(O)ccc2c1=O	nt	nt	nt	-1	-35
COC(=O)c1ccc(CSc2nc3c(cnn3-c3ccc(C)c(C)c3)c(=O)[nH]2)o1	i	i	i	-2	7
COc1ccc(-c2coc3c(CN4CCCCC4)c(O)c(CN4CCCCC4)c(O)c3c2=O)cc1	i	i	i	-2	-6
CCCOc1ccc(/C(O)=C2/C(=O)C(=O)N(CCN(C)C)C2c2ccncc2)cc1 (centres undefined)	nt	nt	nt	9	11
COc1cc2c(cc1OC)C(C(=O)NCc1ccco1)C(c1cccs1)N(C)C2=O (centres undefined)	nt	nt	nt	1	6
COc1cc(N2C(=O)NC3CC2(C)Oc2ccc(Br)cc23)cc(OC)c1OC (centres undefined)	nt	nt	nt	-10	0
CC(C)CCN1CC(C(=O)NCCC2=CCCCC2)CC1=O (centres undefined)	nt	nt	nt	-1	0
Cc1ccc(/C(O)=C2\C(=O)C(=O)N(c3cc(C)on3)C2c2cccc(Br)c2)cc1 (centres undefined)	nt	nt	nt	27	40*
COc1cc(OC)c2c(C)c(Cl)c(=O)oc2c1	nt	nt	nt	-4	-3
Cc1cc2oc(=O)cc(CN3CCN(Cc4ccc5c(c4)OCO5)CC3)c2cc1C	i	i	i	-5	-6
Cc1nnc(NC(=O)CCCCCN2C(=O)C3C4C=CC(C4)C3C2=O)s1 (centres undefined)	nt	nt	nt	0	-3
O=C(c1ccc(Br)o1)N1CCN(c2ccc3nnc(-c4ccccc4)n3n2)CC1	i	i	i	15	12
COc1ccc(Cl)cc1-c1n[nH]c(=S)o1	i	i	i	-2	0
CCn1c(=O)n(CC(=O)NC2CCCC(C)C2C)c(=O)c2ccccc21 (centres undefined)	nt	nt	nt	0	-3
CCOc1ccc(C2c3c(oc4cc(C)c(C)cc4c3=O)C(=O)N2CCCN2CCOCC2)cc1 (centres undefined)	nt	nt	nt	-4	-4
Cc1nc2ccccc2c2oc(C(=O)NCC3CCCO3)cc12 (centres undefined)	nt	nt	nt	4	2
O=C(c1cccs1)N1CCc2ccccc21	i	i	i	-1	-6
CCOc1ccc(Cc2nc(C)c(CC(=O)N3CCOCC3)c(=O)[nH]2)cc1	nt	nt	nt	4	-3
CCCCOC(=O)C1CCCC(C(=O)OCCCC)N1 (centres undefined)	nt	nt	nt	6	14
CC(C)NCC(O)COc1ccc(CCOCC2CC2)cc1 (centres undefined)	i	i	i	-4	3
COc1ccc(-c2nnc(Nc3nc4c(OC)cccc4s3)o2)cc1	nt	nt	nt	3	52*
Cc1ccccc1NC(=O)N1C2CCCC1CC(NC(=O)C1CC1)C2 (centres undefined)	i	i	i	2	9
